Six1-Eya2 inh = blocks human Six1 binding to Eya2; Q15475+O00167; AlphaScreen GST-Six1/His-Eya2 binding, biochemical; hits give low values; control for the full effect not named in the record; activity change, % (concentration not given with the values); 360,000 compounds, 0.56% hits; in the data active = activity change below about -65%; inconclusive = about -30% to -65%; inactive = above about -30%; further: on the % scale 0 is the no-effect control and ±100 the full control effect
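Six1/Eya2 binding was read as AlphaScreen signal after compounds were pinned into GST-Six1 plus His-tagged Eya2 (5X stock 250/500 nM) in pH 8.0 Tris/NaCl/TCEP buffer, beads added, then incubated 1 h, 37 C, dark.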
CtBP-E1A inh = blocks the CtBP interaction with E1A. AlphaScreen GST-E1A/His-CtBP binding, 1536-well; hits give low values; control for the full effect not named in the record. activity change, % (test concentration not listed). 340,000 compounds, 0.49% hits. AID 651724; in the data active means activity change below about -65%; inconclusive means about -30% to -65%; inactive means above about -30%; further: on the % scale 0 is the no-effect control and ±100 the full control effect
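Steps: dispense buffer (Tris pH 8.0, NaCl 300 mM, TCEP 1 mM, BSA, Tween 20); add 5X protein mix (GST-E1A, His-CtBP, 125 nM each); pin 23 nL compound; 2 h at 37 °C, dark; add 5X beads (50 ug/mL); 1 h; read.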
D2 agonist = human D2 receptor agonism in beta-arrestin assay | P14416 | DiscoveRx PathHunter D2 beta-arrestin, luminescence, 90 min; 100% = 57 uM dopamine signal | activation, % (no concentration beside the values) | 360,000 compounds, 0.084% hits | AID 624465; in the data active = activation above about 40%; inconclusive = about 15% to 40%; inactive = below about 15%; further: compound concentration not given in the record; the text of the record calls up to 30% inactive
Target sequence (P14416 whole entry, looked up): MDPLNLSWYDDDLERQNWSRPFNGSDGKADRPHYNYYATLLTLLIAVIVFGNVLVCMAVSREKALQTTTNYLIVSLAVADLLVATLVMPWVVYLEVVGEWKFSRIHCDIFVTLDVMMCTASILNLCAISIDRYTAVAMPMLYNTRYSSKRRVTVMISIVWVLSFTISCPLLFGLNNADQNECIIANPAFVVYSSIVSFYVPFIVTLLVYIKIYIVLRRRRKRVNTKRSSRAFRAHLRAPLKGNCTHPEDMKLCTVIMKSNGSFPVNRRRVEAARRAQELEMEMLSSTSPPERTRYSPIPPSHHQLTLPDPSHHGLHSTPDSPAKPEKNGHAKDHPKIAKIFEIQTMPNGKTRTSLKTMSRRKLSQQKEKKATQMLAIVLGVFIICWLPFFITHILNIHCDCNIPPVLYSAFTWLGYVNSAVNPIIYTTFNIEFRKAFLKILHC
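DiscoveRx PathHunter D2 beta-arrestin cells (2,100/well) attached overnight, then compound-stimulated 90 min at 37 C in HBSS/10 mM HEPES/0.1% Tween-20 buffer; beta-galactosidase complementation read by luminescence after 1 h at ambient temperature. Dopamine 57 uM final (EC100) as control.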
TRPV1 PAM = human TRPV1 potentiation; Q8NER1; TRPV1-expressing cells, Fluo-8 calcium influx, capsaicin EC20 potentiation; host cell line not named in the record; control for the full effect not named in the record; potentiation, % at 8.33 µM; 320,000 compounds, 0.02% hits; AID 540277; active means potentiation above 80%; inconclusive means 30% to 80%; inactive means below 30%; further: 0% is about no effect
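Fluo-8 calcium influx in TRPV1-expressing cells, kinetic read (ex 480/em 520 nm). Compound added and read 3 min for agonist activity, followed by capsaicin at EC20 final and 2 min further read for enhancement.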
D2 potentiator = potentiates the human D2 dopamine receptor allosterically; P14416; DiscoveRx D2 beta-arrestin cells, luminescence, 90 min; 100% = 57 uM dopamine signal; potentiation, % (no concentration beside the values); 360,000 compounds, 0.23% hits; AID 624464; active = potentiation of 50% or more; inconclusive = 30% to 50%; inactive = 30% or less;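 further: compound concentration not given in the record; tested on top of an EC20 dose of dopamine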
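PathHunter D2 cells, attached overnight at 37 deg C, received compound in DMSO plus dopamine at EC20 (50 nM final) for 90 min at 37 deg C. Beta-arrestin recruitment was read as luminescence after 1 h with detection reagent at ambient temperature.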
PINK1 modulator = modulators of PINK1 expression; PINK1 immunofluorescence, high-content cytometry, 24 h; Potency, µM (doses to about 76.6 µM), for the others: top-dose activation (PINK1 increase), actives largely listed as activators; 410,000 compounds, 0.2% hits; AID 624263; active = well fitted activation curve with a large enough effect; inconclusive = small, poorly fitted or top-dose-only effect; inactive = flat fitted curve, though single readings scatter; cell line not stated here;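 further: potency means the concentration at half of the fitted maximal effect; % of control where 0% means no effect; nearly all actives have a fitted effect of over 65% in size; a mitochondrial uncoupler was the plate control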
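Stable cell line, 250 cells/well, 12 h attachment; compounds pinned at 5 concentrations, 24 h; CCCP control. Fixed with nuclear dye, primary antibodies 12 h at 10 degrees C, secondary plus cell stain; laser-scanning cytometer read.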
Sfp PPTase inh = blocks B. subtilis Sfp PPTase activity; Q9F4F7; Biochemical Sfp PPTase activity, qHTS; Potency, µM, without a hit: max response, negative = inhibition, actives largely listed as inhibitors; 310,000 compounds, 3.5% hits; active means well fitted inhibition curve with a large enough effect; inconclusive means small, poorly fitted or top-dose-only effect, or another doubt; inactive means no such curve, though single readings can be large or run the other way;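 further: the enzyme is Sfp with the accession as filed and its product quenches rhodamine fluorescence; potency means the concentration at half of the fitted maximal effect; 0% = enzyme reaction without inhibitor and -100% = no enzyme wells; top concentration of the series not given in the record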
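Fluorescence-quenching assay with 15 nM Sfp, 5 uM rhodamine-CoA and 12.5 uM BHQ-2-labelled ybbR peptide in pH 7.6 Hepes/MgCl2 buffer. Enzyme was pre-incubated with compound for 15 min at room temperature. Rate was taken from the 30-min fluorescence change (525/598 nm).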
* marks the source's active call; other numbers are inactive results; ? = inconclusive; / = no result given; [ ] = remark or other dose. The order is random (roughly 3.7% active in at least one column).

SMILES	Six1-Eya2 inh	CtBP-E1A inh	D2 agonist	TRPV1 PAM	D2 potentiator	PINK1 modulator	Sfp PPTase inh
Cc1cc(C)cc(CC(=O)N2CCC2(C)C(=O)NS(=O)(=O)c2cc(C)ccc2F)c1 (stereo not drawn)	8	6	-1.0	/	0	0.0%	/
O=[N+]([O-])c1ccc(/C=N/n2cn[nH]c2=S)cc1	16	-10	-0.4	4	5	-0.8%	-24%
O=C(O)COc1ccc(C(=O)c2ccccc2)cc1	9	/	-2.1	-3	-12	2.5%	28%
Fc1ccc(C(CCNCc2ccccn2)c2ccc(Cl)cc2)cc1 (stereo not drawn)	24	0	0.0	3	-15	-2.7%	-18%
COc1cccc(-c2noc(CCC(=O)NC3CCCC3)n2)c1	-6	2	-3.4	1	-10	-1.0%	15%
Nc1nc(SCc2ccccn2)c2ncn(C3OC(CO)C(O)C3O)c2n1 (stereo not drawn)	6	3	2.1	/	1	2.8%	/
CC(C)CC1Nc2ncnc(N3CCCCC3)c2N(Cc2ccccc2)C1=O (stereo not drawn)	-8	-3	-2.8	-11	-14	3.7%	/
CCOc1ccc(NC(=O)c2ccccc2SC)cc1	2	15	3.4	-7	2	3.2%	8%
CC(=O)Nc1cccc(-c2ccnc3c2CC(C)(C(=O)NCc2ccc(F)c(F)c2)O3)c1 (stereo not drawn)	1	-1	3.8	/	1	2.3%	/
CC1CCCN(C(=O)C2CCN(CCCc3ccccc3)CC2)C1 (stereo not drawn)	-1	0	15	-3	-8	-2.0%	?
Cc1cc(C(=O)NNC(=O)Cc2ccc(Cl)cc2)c(C)o1	-1	-2	-2.4	3	-8	-1.3%	/
Fc1ccc(COc2ccccc2CNc2nn[nH]n2)cc1	1	0	-2.9	-10	-7	-0.8%	20%

Of the compounds above, four have four or more nitrogen atoms.
SMILES	Six1-Eya2 inh	CtBP-E1A inh	D2 agonist	TRPV1 PAM	D2 potentiator	PINK1 modulator	Sfp PPTase inh
O=[N+]([O-])c1ccc(/C=N/n2cn[nH]c2=S)cc1	16	-10	-0.4	4	5	-0.8%	-24%
Nc1nc(SCc2ccccn2)c2ncn(C3OC(CO)C(O)C3O)c2n1 (stereo not drawn)	6	3	2.1	/	1	2.8%	/
CC(C)CC1Nc2ncnc(N3CCCCC3)c2N(Cc2ccccc2)C1=O (stereo not drawn)	-8	-3	-2.8	-11	-14	3.7%	/
Fc1ccc(COc2ccccc2CNc2nn[nH]n2)cc1	1	0	-2.9	-10	-7	-0.8%	20%

More entries follow:
SMILES	Six1-Eya2 inh	CtBP-E1A inh	D2 agonist	TRPV1 PAM	D2 potentiator	PINK1 modulator	Sfp PPTase inh
COc1ccc2cc3cc(C(=O)NCCN4CCN(Cc5ccccc5)CC4)oc3nc2c1	-14	-6	-1.0	-4	-17	3.2%	11%
COc1ccc(C(CNC(=O)COc2ccc(F)cc2Br)N2CCCC2)cc1 (stereo not drawn)	0	-2	-3.2	24	-21	0.4%	9%
Cc1cccc(C(=O)OCC(=O)N2CCCCCC2)c1	0	13	-0.1	1	-16	0.9%	/
COc1cc(CCCN2CCNC[C@@H]2CC2CCCCC2)cc(OC)c1OC	2	3	2.3	/	-6	-0.5%	/
Cc1c(NC(=O)C2CCCN(S(=O)(=O)c3cnc[nH]3)C2)c(=O)n(-c2ccccc2)n1C (stereo not drawn)	-1	6	-5.2	6	-7	-1.0%	5%
COC(=O)C1=C(C)N(CCCC(=O)O)C(=O)NC1c1ccc(OC)cc1 (stereo not drawn)	2	6	-2.8	/	-10	0.3%	/
Cc1cc(C)n(CC(=O)NCCC2=CCCCC2)n1	1	6	4.7	-9	-1	-1.7%	9%
CC(C)C(=O)N1CCCC1(C)C(=O)NCc1ccc(Cl)cc1 (stereo not drawn)	6	1	1.2	/	-3	-0.7%	/
CCCS(=O)(=O)N1CCCC(C(=O)N2CCCCC2)C1 (stereo not drawn)	9	8	-0.5	-2	-3	1.5%	14%
CCc1cccc(CC)c1NC(=O)CSc1nnc(C(C)C)n1CC	4	1	-3.1	-5	-5	1.7%	4%
Nc1nc(NCc2ccco2)nc(NCCO)c1[N+](=O)[O-]	-6	-13	-4.8	3	-15	-0.1%	18%
COCCCN(C(C)=O)c1nc(-c2ccc(OC)cc2)cs1	0	-2	3.1	-17	0	2.6%	-12%
Cc1cccc([C@@H]2[C@@H]3C(=O)N(Cc4ccccc4)C(=O)[C@@H]3[C@]3(C)C(=O)N(c4cccc(Cl)c4)C(=O)N23)c1	-7	-5	-2.4	7	-10	0.2%	5%
CN1CCN(C(=O)C[C@H]2C[C@H]3c4cc(NC(=O)NC5CCCCC5)ccc4O[C@H]3[C@@H](CO)O2)CC1	9	-15	-0.1	/	0	-1.4%	/
CC1CCC2(CC1)NC(=O)N(CC(=O)Nc1cc(S(=O)(=O)N3CCCC3)ccc1Cl)C2=O (stereo not drawn)	-12	-16	9.2	/	-2	-1.7%	/
COc1cccc(/C=C/C(=O)OCC(=O)Nc2ccc(N3CCOCC3)cc2)c1OC	5	24	0.9	-2	-8	-0.1%	16%
Clc1ccc(-c2nnc3sc(-c4ccc(Br)o4)nn23)cc1	-4	-2	-3.0	25	-4	4.6%	6%
CS(=O)(=O)NNC(=O)Cn1nnc(-c2cc(C(F)(F)F)cc(C(F)(F)F)c2)n1	7	0	4.7	1	1	0.8%	6%
CCNc1nnc(-c2ccc(C)cc2)o1	3	-9	0.0	-13	-9	-4.6%	6%
CCC(C)[C@@H](C(=O)N1CCNCC1)n1cc(CCCCN)nn1 (stereo partly drawn)	7	4	0.0	-6	-4	3.2%	1%
Cn1c(SCc2cccnc2)nc2cccnc21	-3	5	-0.7	-5	1	-0.7%	14%
COc1ccc(NC(=O)C2CCCN2C(=O)NC2CCCCC2)c(OC)c1 (stereo not drawn)	6	9	0.8	-5	-2	-2.0%	12%
CCc1ccc(CNC(=O)C2CCCN(S(=O)(=O)N3CC(C)CC(C)C3)C2)cc1 (stereo not drawn)	-1	10	9.9	-2	-3	1.7%	20%
O=[N+]([O-])c1ccc2c(c1)CNc1ccccc1O2	-22	0	1.0	5	-10	-2.7%	19%
COc1c(OC(C)=O)ccc(/C=N\NC(=O)c2ccc(Br)cc2)c1[N+](=O)[O-]	-8	2	-5.5	4	-18	1.8%	19%
CC(C)(O)CCC(C)(C)O	1	7	4.6	0	-2	-0.6%	/
O=C(c1ccccc1)c1ccc2ccccc2n1	35	24	-1.9	11	20	8.9%	3%
Cn1c(=O)[nH]c(=O)c2c1nc(N1CCN(CCO)CC1)n2Cc1ccccc1	-7	-9	-7.1	-6	-3	4.9%	14%
Nc1[nH]nc2nc(NCc3ccccc3)c3c(c12)CCN(Cc1ccccc1)C3	-15	-10	-2.2	-7	-32	-2.7%	-4%
CN1CCN(C(=O)c2cc(Cl)cc(Cl)c2NC(=O)c2ccco2)CC1	11	8	-5.6	-2	2	-0.7%	11%
CCOC(=O)Cc1csc(NC(=O)c2ccco2)n1	1	-5	-0.2	8	-7	5.8%[38.3 µM]	-1%
CCOc1ccc(N(C(=O)c2ccccc2Cl)C2=NC(C)(C)CS2)cc1	3	3	2.5	-6	-2	0.3%	17%
C=CCn1cc(C(=O)NCCCOCC)c(=O)c2cc(S(=O)(=O)N(CC)CC)ccc21	-1	-15	-2.7	-8	-10	-2.1%	2%
Cc1c(C)n(Cc2ccccc2)c2ncnc(NCCCN(C)C)c12	-22	-24	-5.2	5	-35	-1.0%	8%
O=C(COC(=O)COc1ccccc1)NCCc1ccccc1	10	-10	-4.6	25	-2	2.3%	/
CC(C)(C)N/N=C/c1c(O)n(-c2ccc(Cl)cn2)c(=O)c2ccccc12	-6	3	-10	-3	-35	4.9%	-9%
COc1ccc(OC)c(C2NC(=O)NC(C)=C2C(=O)OC2CCCCC2)c1 (stereo not drawn)	5	-4	8.4	-2	0	2.8%	15%
CC(=O)Oc1c(Sc2ccccc2[N+](=O)[O-])c(C)nn1C(C)(C)C	0	2	-7.6	3	-17	0.3%	9%
COc1ccc(CNC(=O)C2CCCN2)cc1OC (stereo not drawn)	3	-1	-6.7	6	-1	1.3%	-10%
COc1cc(NC(=O)CSc2nnc(C)s2)cc(OC)c1	2	3	-3.6	/	-6	0.8%	22%
Cc1cc(C)c2nc(SCc3ccc([N+](=O)[O-])cc3)nc(C)c2c1	4	5	-2.2	-1	1	?	3%
NC(=S)NN=Cc1ccc(OC(=O)COc2cc(Cl)c(Cl)cc2Cl)cn1	-94*	-89*	-15	/	-20	0.2%	/
OC(c1ccccc1)(c1ccccc1)C1CCN(C(=S)NCCc2ccccc2)CC1	-4	25	2.3	1	-14	1.2%	30%
Cc1ccc(S(=O)(=O)N2CCCC2)cc1C(=O)NC1CCCCC1	9	4	2.2	-11	5	1.0%	2%
O=C(c1cccc(C(=O)N2CCC(O)(c3ccccc3)CC2)c1)N1CCC(O)(c2ccccc2)CC1	0	4	-0.9	/	-5	0.6%	/
COc1ccc(N=C2NC(=O)/C(=C/c3ccc(O)c(OC)c3)S2)cc1	?	-3	-4.7	-12	-31	2.9%	11%
Cc1ccc(C)c(N(C(=O)c2nsc(Cl)c2Cl)C(C(=O)NC2CCCC2)c2ccc(O)cc2)c1 (stereo not drawn)	0	0	-5.7	1	-13	5.0%	28%
CC(C)C(NC(=O)c1ccccc1)C(=O)N1CCN(C/C=C/c2ccccc2)CC1 (stereo not drawn)	-2	3	5.3	-3	-3	-1.2%	/
COC(=O)CN(c1ccccc1)S(=O)(=O)c1ccc(F)cc1	1	16	-2.5	2	-13	1.2%	18%
CC1(C(=O)NS(=O)(=O)c2ccc(Cl)cc2)CCN1C(=O)C1(c2ccc(Cl)cc2)CC1 (stereo not drawn)	0	6	4.4	/	2	0.5%	/
CCOCCC(=O)Nc1nnc(CCc2ccccc2)s1	-3	/	-3.0	2	-14	-0.5%	29%
C(=C\c1cccc2ccccc12)/c1nnc(-c2cccs2)o1	73	64	0.5	-13	-9	2.0%[38.3 µM]	?
O=C(OCC(=O)N1CCCC1=O)c1cc(S(=O)(=O)N2CCOCC2)ccc1Cl	-5	3	3.2	3	-1	0.3%	/
O=c1c2nnn(Cc3ccccc3)c2ncn1-c1ccccc1	-7	-1	0.4	8	-19	2.9%	7%
